MITF inhib: inhibitors of MITF, primary screen, MITF inhibitor project, cell-based, luminescence; TRPM1 promoter luciferase, 24 h; inhibition, % (no concentration beside the values); 0.28% of 37,000 active; AID 2240, 2010;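 active = most replicates at 85% or more, or half of them and the mean; inconclusive = half reach 85% but not the mean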;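 also: human melanocyte line stably carrying TRPM1 promoter luciferase reporter; 0% = vehicle wells and 100% = a positive control; the first replicate is given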
YB-1 expr inh: inhibitors of YB-1 gene expression, primary screen, cell-based, fluorescence; U2OS, qRT-PCR YB-1 vs CDIP delta delta Cp, 16 h; hits give high values; zero = DMSO, each unit about twofold; delta delta Cp (YB-1 minus CDIP) (concentration not given with the values); 0.37% of 30,000 active;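 active = delta delta Cp rounded down to an integer at or above 3, about 3 SD of DMSO wells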;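 also: higher means less YB-1 transcript or more CDIP transcript relative to DMSO; stock transfer was 100 nL into about 100 µL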
PD-1 reverse act: activators reversing PD-1 mediated T-cell inhibition, primary screen, luminescence, primary human CD4 T cells, PD-L1 beads; CellTiter-Glo 96 h; activation, % (concentration not given with the values); 29,000 tested, under 10 active;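 active = replicate mean of 50% or more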;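 also: 0% = median vehicle wells and 100% = positive control; 100 nL library stock added to about 50 µL; numbers are from one replicate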
Hedgehog inh: Hedgehog pathway signaling inhibitors, primary screen, luminescence, Shh-LIGHT2 cells, Gli-luciferase. Shh-LIGHT2 Gli-luciferase reporter, 30 h. inhibition, % (concentration not given with the values). 2.1% of 22,000 active;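 active = replicate mean of 65% or more; inconclusive = mean lower but half the replicates past it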;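 also: pathway switched on by Shh-conditioned medium diluted 1 in 25 in low serum; 100 nL library stock added to about 40 µL; 0% = median of neutral wells and 100% = positive control level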
Starred values were filed as active, the others as inactive. This is a subset, so the mix of outcomes need not match the whole.

For CC(C)[C@H]1C(=O)O[C@H](C(C)C)C(=O)N(C)[C@@H](C(C)C)C(=O)O[C@H](C(C)C)C(=O)N(C)[C@@H](C(C)C)C(=O)O[C@H](C(C)C)C(=O)N1C the results were MITF inhib 75, YB-1 expr inh -0.19, PD-1 reverse act -0.4 and Hedgehog inh 22.
Screening CC(=O)OC1CN2CCC1CC2 (stereo unspecified) returned MITF inhib -13, YB-1 expr inh -0.34 and Hedgehog inh 20.
CCC[C@H]1C[C@H]2OC(=O)c3c(cc(OC)c(OC)c3O)[C@H]2O1 was read as MITF inhib 43, YB-1 expr inh 0.66, PD-1 reverse act 1.8 and Hedgehog inh -25.
CN1C[C@H](CNC(=O)OCc2ccccc2)C[C@@H]2c3cccc4c3c(cn4C)C[C@H]21 was read as MITF inhib 15, YB-1 expr inh 0.13 and Hedgehog inh 50.
Screening Cc1c2ccncc2c(C)c2c1[nH]c1ccccc12 returned MITF inhib 28, YB-1 expr inh 1.3, PD-1 reverse act -18 and Hedgehog inh 71*.
For COC1=CC(=O)O[C@@H](CCc2ccccc2)C1 the results were MITF inhib -2, YB-1 expr inh 0.29, PD-1 reverse act 0.5 and Hedgehog inh -21.
CCC1(C)CC(=O)NC(=O)C1 was read as MITF inhib -8, YB-1 expr inh 0.58, PD-1 reverse act 1.6 and Hedgehog inh -16.
CC(=O)OCC(=O)[C@H]1CC[C@H]2[C@@H]3CC[C@H]4C[C@H](O)CC[C@]4(C)[C@H]3C(=O)C[C@]12C was read as MITF inhib 16, YB-1 expr inh -0.63 and Hedgehog inh -54.
C/C=C1/CN2C3CC1C(CO)C2Cc1c3[nH]c2ccc(OC)cc12 (stereo unspecified) was read as YB-1 expr inh 0.11 and Hedgehog inh -8.
Screening COc1ccc2c(c1OC)C(=O)O[C@@H]2[C@@H]1c2cc3c(cc2CCN1C)OCO3 returned MITF inhib -9, YB-1 expr inh -0.15 and Hedgehog inh -2.
C[C@]12C=CC(=O)C=C1CCC1C2CC[C@]2(C)C(=O)CCC12 (stereo partly specified) was read as MITF inhib -12, YB-1 expr inh -0.51 and Hedgehog inh -25.
`COc1cc2c(cc1O)CCNC2C` (stereo unspecified) gave MITF inhib -14, YB-1 expr inh -0.1 and Hedgehog inh 1.
C=C1C(O)(c2ccccc2)C2CC[N+]1(C)CC2 (stereo unspecified) was read as MITF inhib -13, YB-1 expr inh 0.2, PD-1 reverse act 0.4 and Hedgehog inh 5.
For CCCCC/C=C\C/C=C\C/C=C\C/C=C\CCCC(=O)NCc1ccc(O)c(OC)c1 the results were MITF inhib 8, YB-1 expr inh 0.037 and Hedgehog inh 41.
`C[C@@]12N[C@@H](Cc3ccccc31)c1ccccc12` gave MITF inhib 7, YB-1 expr inh -0.079, PD-1 reverse act 0.9 and Hedgehog inh 1.
For C[C@@H]1O[C@@H](O[C@H]2[C@H](O)[C@@H](O)[C@H](O[C@@H]3C=C4CC[C@@H]5C(CC[C@]6(C)[C@@H](c7ccc(=O)oc7)CC[C@]56O)[C@@]4(C)CC3)O[C@@H]2CO)[C@H](O)[C@H](O)[C@H]1O (stereo partly specified) the results were MITF inhib 51, YB-1 expr inh -0.4, PD-1 reverse act -34 and Hedgehog inh -7.
For CCCN1CCc2cccc3c2[C@H]1Cc1ccc(O)c(O)c1-3 the results were MITF inhib 0, YB-1 expr inh 0.68 and Hedgehog inh 25.
For CC(C)=CC1C(C(=O)OCc2coc(Cc3ccccc3)c2)C1(C)C (stereo unspecified) the results were MITF inhib -8, YB-1 expr inh -0.15, PD-1 reverse act 0.0 and Hedgehog inh 36.
`COc1cc2c(c(OC)c1OC)-c1cc3c(cc1[C@H](OC(C)=O)[C@H]1COC(=O)[C@@H]1C2)OCO3` gave MITF inhib 26, YB-1 expr inh -0.4, PD-1 reverse act -9.3 and Hedgehog inh 83*.
Screening COc1cc2c(cc1OC)[C@@]13CCN4CC5=CCOC6CC(=O)N2C1[C@H]6[C@H]5C[C@H]43 (stereo partly specified) returned MITF inhib -8, YB-1 expr inh 0.21 and Hedgehog inh -20.

As a working copy, part of the list above:
For COC1=CC(=O)O[C@@H](CCc2ccccc2)C1 the results were MITF inhib -2, YB-1 expr inh 0.29, PD-1 reverse act 0.5 and Hedgehog inh -21.
CCC1(C)CC(=O)NC(=O)C1 was read as MITF inhib -8, YB-1 expr inh 0.58, PD-1 reverse act 1.6 and Hedgehog inh -16.
CC(=O)OCC(=O)[C@H]1CC[C@H]2[C@@H]3CC[C@H]4C[C@H](O)CC[C@]4(C)[C@H]3C(=O)C[C@]12C was read as MITF inhib 16, YB-1 expr inh -0.63 and Hedgehog inh -54.
C/C=C1/CN2C3CC1C(CO)C2Cc1c3[nH]c2ccc(OC)cc12 (stereo unspecified) was read as YB-1 expr inh 0.11 and Hedgehog inh -8.
Screening COc1ccc2c(c1OC)C(=O)O[C@@H]2[C@@H]1c2cc3c(cc2CCN1C)OCO3 returned MITF inhib -9, YB-1 expr inh -0.15 and Hedgehog inh -2.
C[C@]12C=CC(=O)C=C1CCC1C2CC[C@]2(C)C(=O)CCC12 (stereo partly specified) was read as MITF inhib -12, YB-1 expr inh -0.51 and Hedgehog inh -25.
`COc1cc2c(cc1O)CCNC2C` (stereo unspecified) gave MITF inhib -14, YB-1 expr inh -0.1 and Hedgehog inh 1.
C=C1C(O)(c2ccccc2)C2CC[N+]1(C)CC2 (stereo unspecified) was read as MITF inhib -13, YB-1 expr inh 0.2, PD-1 reverse act 0.4 and Hedgehog inh 5.
For CCCCC/C=C\C/C=C\C/C=C\C/C=C\CCCC(=O)NCc1ccc(O)c(OC)c1 the results were MITF inhib 8, YB-1 expr inh 0.037 and Hedgehog inh 41.
`C[C@@]12N[C@@H](Cc3ccccc31)c1ccccc12` gave MITF inhib 7, YB-1 expr inh -0.079, PD-1 reverse act 0.9 and Hedgehog inh 1.
For C[C@@H]1O[C@@H](O[C@H]2[C@H](O)[C@@H](O)[C@H](O[C@@H]3C=C4CC[C@@H]5C(CC[C@]6(C)[C@@H](c7ccc(=O)oc7)CC[C@]56O)[C@@]4(C)CC3)O[C@@H]2CO)[C@H](O)[C@H](O)[C@H]1O (stereo partly specified) the results were MITF inhib 51, YB-1 expr inh -0.4, PD-1 reverse act -34 and Hedgehog inh -7.
For CCCN1CCc2cccc3c2[C@H]1Cc1ccc(O)c(O)c1-3 the results were MITF inhib 0, YB-1 expr inh 0.68 and Hedgehog inh 25.

Remaining list, next part.
For C[C@H]1OC(O[C@H]2[C@@H](O)CC(O[C@H]3[C@@H](O)C[C@H](O[C@H]4CC[C@]5(C)C6CC[C@]7(C)[C@@H](C8=CC(=O)OC8)[C@@H](O)C[C@]7(O)[C@@H]6CC[C@@H]5C4)O[C@@H]3C)O[C@@H]2C)C[C@H](O)C1O (stereo partly specified) the results were MITF inhib 23, YB-1 expr inh 0.24 and Hedgehog inh -4.
`Cc1ncsc1CCCl` gave MITF inhib -1, YB-1 expr inh -0.2 and Hedgehog inh -40.
Screening CC[C@H]1CN2CCC1C[C@H]2[C@H](O)c1ccnc2ccc(OC)cc12 (stereo partly specified) returned MITF inhib 16, YB-1 expr inh -0.1, PD-1 reverse act -4.2 and Hedgehog inh 13.
CC(Cc1ccc(O)cc1)NCC(O)c1cc(O)cc(O)c1 (stereo unspecified) was read as MITF inhib -3, YB-1 expr inh 0.0052 and Hedgehog inh -2.
`O=C(O)c1nn(Cc2ccc(Cl)c(Cl)c2)c2ccccc12` gave MITF inhib 7, YB-1 expr inh 0.52 and Hedgehog inh 19.
`C[C@@H](N)[C@@H](O)c1ccccc1` gave MITF inhib -5, YB-1 expr inh 0.42 and Hedgehog inh -5.
Screening C=C(C)c1cc2cc(C(C)=O)c(O)cc2o1 returned MITF inhib -1, YB-1 expr inh 0.33 and Hedgehog inh -58.
For CCCN1CCC[C@@H]2Cc3nc(N)ncc3C[C@H]21 the results were MITF inhib 3, YB-1 expr inh -0.1 and Hedgehog inh -15.
For N#C/C(=C\c1ccc(O)cc1)C(=O)O the results were MITF inhib -5, YB-1 expr inh -0.11 and Hedgehog inh -1.
CN1[C@@H]2CC[C@H]1CC(OC(=O)C1C=Nc3ccccc31)C2 (stereo partly specified) was read as MITF inhib -7, YB-1 expr inh 0.16 and Hedgehog inh 30.
COc1cc(O)c(C(=O)O)c(-c2cc(O)c(O)cc2C)c1 was read as MITF inhib 6, YB-1 expr inh -0.22, PD-1 reverse act -0.2 and Hedgehog inh 11.
`CC(C)(C)C(=O)c1cn(CC(=O)NCc2ccco2)c2ccccc12` gave MITF inhib -72 and PD-1 reverse act -0.7.
Screening C=C(C)C1Cc2c(ccc3c(=O)c4c(oc23)COc2cc(OC)c(OC)cc2-4)O1 (stereo unspecified) returned MITF inhib 6, YB-1 expr inh 0.12 and Hedgehog inh inconclusive.
For COc1cc([C@@H]2c3cc4c(cc3[C@@H](O)C3COC(=O)C32)OCO4)cc(OC)c1O (stereo partly specified) the results were MITF inhib 44, YB-1 expr inh 0.016 and Hedgehog inh 90*.

Screening results from PubChem BioAssay.
